Screening results (PubChem BioAssay)
UCH37 inh: blocks the human deubiquitinase UCH37. Q9Y5K5. purified proteasome/UCH37, Ub-AMC cleavage fluorescence. inhibition, % (no concentration beside the values). 330,000 compounds, 0.33% hits. AID 588478;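 active means mean of two replicates above 20%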;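 further: 0% = compound-free wells with enzyme and 100% = wells lacking proteasome; stock transfer was 100 nL into about 20 µL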
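Test system – human UCH37 enzyme supplied as purified proteasome complex · Incubation – 30 min preincubation with enzyme, 25 min cleavage at room temperature · Detection – AMC fluorescence from Ub-AMC cleavage, excitation 355 nm, emission 460 nm · Benchmarks – no-proteasome wells (full inhibition) and compound-free wells (no inhibition)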
Vif A3G: inhibitors of Vif binding to APOBEC3G peptide, primary screen, biochemical, TR-FRET, GST-Vif 1-94, biotin-A3G peptide, dose response retest (AID 1117319) | TR-FRET GST-Vif / biotin-A3G peptide binding; higher % means a stronger effect; test concentration not given here; strong numbers were not always called active | inhibition, %, or IC50 in µM where a hit was titrated | 260,000 compounds, 0.57% hits;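 active means above the screen mean plus three standard deviations and confirmed in dose response; inconclusive means results disagree or hit not tested in dose response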;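 further: Vif residues 1-94 fused to GST binding biotinylated APOBEC3G peptide 110-148; 0% = full assay without inhibitor and 100% = GST in place of GST-Vif; retest series ran down from 100 µM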
HNF4A DNA FP: change in binding of human HNF4 alpha to DNA; P41235; HNF4a-FITC DNA binding, fluorescence polarization, 1 h; activity change, % at 10 µM; 360,000 compounds, 0.3% hits; AID 1224865; in the data active means activity change above about 30%, passing the limit was not always enough;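 further: controls were the assay level and a saturating level of protein; the project sought stronger binding though the title names inhibitors; some compounds called inactive have numbers as strong as hits; positive values seem to mean higher polarization but the record does not say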
Target sequence (P41235 whole entry, looked up): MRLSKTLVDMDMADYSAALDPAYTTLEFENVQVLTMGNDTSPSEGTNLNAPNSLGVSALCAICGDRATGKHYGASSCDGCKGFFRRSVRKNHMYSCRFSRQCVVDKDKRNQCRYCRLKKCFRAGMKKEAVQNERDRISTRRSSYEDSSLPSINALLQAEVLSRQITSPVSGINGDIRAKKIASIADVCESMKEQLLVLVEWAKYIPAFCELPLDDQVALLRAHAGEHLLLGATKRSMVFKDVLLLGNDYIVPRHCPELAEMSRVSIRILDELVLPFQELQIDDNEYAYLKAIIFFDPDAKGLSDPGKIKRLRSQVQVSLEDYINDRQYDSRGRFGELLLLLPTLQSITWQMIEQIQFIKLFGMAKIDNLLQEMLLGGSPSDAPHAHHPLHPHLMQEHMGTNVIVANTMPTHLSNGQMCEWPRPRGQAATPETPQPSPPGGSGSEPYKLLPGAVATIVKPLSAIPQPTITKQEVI
FGF22 binding: shifts melting point of recombinant human FGF22 | calls only at 9.99 µM | Q9HCT0 | 340,000 compounds, 1.5% hits | recombinant FGF22 thermal shift, SYPRO orange fluorescence; percent of sucrose octasulfate shift, DMSO zero;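 active means melting point raised past a set limit in the mean and every replicate; inconclusive means no clear call; three in four hits are not shown here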
RanGTP-Imp inh: inhibitors of RanGTP-importin-beta interaction, primary screen, biochemical, FRET, CFP-Ran, YFP-importin-beta, homogeneous | cell-free CFP-Ran/YFP-importin-beta FRET ratio | inhibition, % (concentration not given with the values) | 300,000 compounds, 1.1% hits | AID 2216;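 active means most replicates above 15%; inconclusive means exactly half above 15%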;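 further: 0% = DMSO wells and 100% = Ran loaded with GDP instead of GTP; wells of about 40 µL received 100 nL stock; the first replicate is given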
MLL AF4-AF9 inh: blocks AF4 peptide binding to human AF9; AlphaScreen, biotin-AF4 peptide binding to FLAG-AF9; AID 651704; inhibition, % at 10 µM; P42568; 350,000 compounds, 0.47% hits;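 active means every replicate reaching a set inhibition limit, whatever the replicate mean, cut at about 25% in these data; inconclusive means mean inhibition reaches that limit but some replicates miss it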;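 further: 0% = plate neutral control median and 100% = total signal loss; the record names both 10 and 1 µM as test concentration; the first replicate is given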
Target sequence (P42568 whole entry, looked up): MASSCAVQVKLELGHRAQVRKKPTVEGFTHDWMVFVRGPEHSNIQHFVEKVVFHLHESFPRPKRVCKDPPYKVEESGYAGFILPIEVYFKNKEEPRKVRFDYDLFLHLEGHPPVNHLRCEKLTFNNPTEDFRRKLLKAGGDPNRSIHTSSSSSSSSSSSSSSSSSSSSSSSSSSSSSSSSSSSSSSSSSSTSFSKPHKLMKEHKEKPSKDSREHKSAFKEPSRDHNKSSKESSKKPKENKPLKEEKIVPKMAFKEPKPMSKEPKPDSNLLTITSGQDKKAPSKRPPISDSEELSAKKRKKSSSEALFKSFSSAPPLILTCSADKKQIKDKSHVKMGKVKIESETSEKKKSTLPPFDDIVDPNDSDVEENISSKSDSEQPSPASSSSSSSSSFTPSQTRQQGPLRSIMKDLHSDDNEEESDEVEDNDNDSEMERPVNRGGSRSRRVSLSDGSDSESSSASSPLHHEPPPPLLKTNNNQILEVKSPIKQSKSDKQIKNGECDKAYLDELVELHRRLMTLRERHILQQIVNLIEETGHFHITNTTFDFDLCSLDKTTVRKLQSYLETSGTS
E coli growth: inhibitors of Escherichia coli growth. OD600, 23 h; active compounds read low. OD600 absorbance (test concentration not listed). 330,000 compounds, 0.21% hits. AID 1053175;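 active means OD600 absorbance below the run mean of sample wells minus 3.6 SD, in any replicate, cut at about 0.56 in these data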;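 further: stock transfer was 300 nL into about 60 µL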
Active calls of the source: *; i = inactive; ? = inconclusive; nt = not tested or not shown; & = joins results of further samples. The list is partial, so the mix of outcomes need not match the whole.

SMILES	UCH37 inh	Vif A3G	HNF4A DNA FP	FGF22 binding	RanGTP-Imp inh	MLL AF4-AF9 inh	E coli growth
CC(=O)N1CCc2cc(S(=O)(=O)NC(CC(C)C)C(=O)Nc3cc(C)ccn3)ccc21 (stereo not drawn)	-0.5	11%	0.6	nt	-1.6	nt	0.73
Cc1nnc(NC(=O)c2cc(-c3ccncc3)nc3c(C)cccc23)s1	0.6	nt	1.5	i	-0.2	1.6	0.66
O=C(CN1CCCc2ccccc21)Nc1ccc(F)cc1[N+](=O)[O-]	5.7	-5%	-1.4	i	-4.0	1.5	0.66
Cc1ccc(S(=O)(=O)N[C@@H](C)C(=O)N2CCC(C(=O)N3CCC[C@H]3C(=O)O)CC2)cc1	0.6	24%&2%	-1.8	nt	-1.0	-1.6	0.74
CN(CCc1ccccc1)C(=O)c1cccc(NC(=O)Cc2cccc(NC(=O)C3CCN(C(=O)C4CCC4)CC3)c2)c1	4.2	0%	1.6	i	nt	-5.2	0.69
CN(C)C(=O)CSc1nc(SCC(=O)N(C)C)n(-c2ccccc2)n1	4.5	-2%	32	nt	4.4	nt	0.68
COc1ccc(O)c(C(=O)c2cnc3onc(C)c3c2)c1	-3.6	9%	6.7	nt	0.6	nt	0.72
O=C(CCSCc1cccc(Cl)c1)NCCC1=CCCCC1	0.1	-4%	1.5	nt	-2.9	nt	0.64
O=C(Nc1ccc(F)cc1)c1ccc(COc2ccccc2)cc1	4.9	?	0.1	i	3.9	-1.9	0.7
CC12C=CC(=O)C=C1CCC1C2C(=O)C[C@@]2(C)C1CCC2(O)C(=O)CO (stereo partly drawn)	-0.7	nt	-3.4	i	3.8	-1.0	0.7
COc1ccc(C(=O)N2CCCCC2c2cc(C(=O)Nc3ccc(F)c(Cl)c3)no2)cc1 (stereo not drawn)	nt	nt	-0.6	i	nt	-0.1	nt
Cc1ccc(C(=O)CCC2CCCC2=O)cc1 (stereo not drawn)	-4.2	2%	-2.0	nt	-0.3	nt	0.74
COc1cccc(CNC(=O)Cn2c(=O)oc3cc(S(=O)(=O)N4CCCCC4)ccc32)c1	3.5	nt	0.2	i	1.5	-1.0	0.72
COc1ccc(C2/C=C\CN(Cc3ccncc3)CC(=O)N2Cc2ccc(F)cc2)cc1 (stereo not drawn)	0.0	nt	4.8	i	3.1	3.1	nt
CC1CCCC(C)N1C(=O)COC(=O)COc1ccccc1C#N (stereo not drawn)	-0.6	nt	-2.2	i	nt	-4.1	0.72
Cn1nnc(NC(=O)CSc2ncn[nH]2)n1	-0.6	7%	1.3	nt	2.1	nt	0.72
O=C(COc1ccc2ccccc2c1)NCCn1ccc2ccccc21	3.1	-4%	-2.9	i	-2.2	2.9	0.72
COc1ccccc1N(C)S(=O)(=O)c1ccc(C(=O)OCC(=O)Nc2cc(C)on2)cc1	0.8	6%	2.8	i	4.3	-2.3	0.71
CCc1nc2ccc(C(=O)NCCCN3CCCC3=O)cn2c1N(CCC(C)C)CCN(C)C	nt	nt	0.6	i	nt	-2.5	nt
O=C(NCCCCc1ccccc1)C12CN(Cc3ccccc3)CC1C(c1ccc([N+](=O)[O-])cc1)=NO2 (stereo not drawn)	-0.2	4%	-4.3	i	-0.9	5.3	0.68
Cc1ccc(C)c(NC(=O)CCn2cnnn2)c1	4.4	29%	1.0	i	-1.9	-8.9	0.69
Cc1ccc(N(Cc2ccccc2)C(=O)CSC(C)C(=O)Nc2cc(C)on2)cc1 (stereo not drawn)	nt	nt	-0.4	i	nt	1.0	nt
COC(=O)c1ccccc1NC(=O)C1CCCN(S(=O)(=O)c2ccc(OC)cc2)C1 (stereo not drawn)	3.3	-1%	-1.2	nt	-1.3	nt	0.71
COc1ccccc1-c1cnc(C(O)c2cccc(CN3CCCCC3)c2)[nH]1 (stereo not drawn)	nt	nt	0.4	i	nt	3.6	nt
O=C(c1cc(COc2ccc(F)cc2Cl)on1)N1CCC(OCc2cccnc2)CC1	5.0	2%	3.2	i	-1.1	-0.2	0.73
COc1ccc(NC(=O)Nc2ccccc2F)c(C)c1	0.7	7%	5.0	i	-0.2	-0.3	0.69
CN(Cc1ccc(F)cc1)C(=O)COc1ccc2ccccc2c1	3.1	-10%	2.0	i	6.6	0.3	0.71
Cc1ccc(NC(=O)C2CCCN(S(=O)(=O)c3ccc4[nH]c(=O)ccc4c3)C2)cc1C (stereo not drawn)	-13	nt	-2.9	i	2.6	5.1	0.7
COC(=O)c1ccccc1NC(=O)CSc1nnc(-c2cccnc2)n1N	1.2	2%	2.4	i	-1.3	-0.9	0.69
Cc1cc2c(cc1S(=O)(=O)NCC(C)c1ccccc1)n(C)c(=O)c(=O)n2C (stereo not drawn)	-6.4	0%	0.3	i	2.2	0.0	0.73
CN1C(=O)CC(N2CCN(C(=O)c3ccccc3)CC2)C1=O (stereo not drawn)	0.4	>100µM*	-0.1	nt	-2.7	nt	0.73
COCCn1c(SCC(=O)Nc2ccc(NC(=O)c3ccco3)c(OC)c2)nc2ccccc2c1=O	-153	2%	-2.2	i	0.1	-12	0.7
O=C(c1ccccn1)C1CCCN(Cc2nc(Cc3cccc(F)c3)no2)C1 (stereo not drawn)	2.9	-1%	3.4	i	0.4	-43	0.64
CCOC(=O)C1=C(COC(=O)C2CC(=O)N(c3ccc(C)cc3)C2)NC(=O)NC1C (stereo not drawn)	0.1	-1%	-4.6	i	-0.2	-3.0	0.65
COC(=O)c1[nH]c2ccccc2c1NS(=O)(=O)c1ccc(F)c(C)c1	2.0	-3%	1.0	nt	-17	nt	0.65
O=C(O)c1ccc(S(=O)(=O)c2ccc(Sc3ccc(C(=O)O)c(C(=O)O)c3)cc2)cc1	0.4	-3%	-2.8	i	0.2	-11	0.66
O=C(COC(=O)CCc1c[nH]c(=O)[nH]1)Nc1ccccc1	2.7	26%	3.3	nt	-5.4	nt	0.69
COc1cc(OC)c(OC)cc1CN1CCN(Cc2cccn2C)CC1	0.8	17%	-2.4	nt	-1.1	nt	0.72
CCOc1ccc(NC(=O)Cn2cncc2-c2ccc([N+](=O)[O-])cc2)cc1	4.2	74%	1.5	i	0.2	-3.1	0.65
Cc1ccc(NC(=O)NCCCl)cc1S(=O)(=O)N1CCOCC1	2.7	14%	-1.1	i	-1.6	6.3	0.69
CCc1ccc(NC(=O)[C@H](Cc2ccccc2)NC(=O)C2CCN(C(=O)[C@@H](N)CC(C)C)CC2)cc1	1.9	nt	4.1	i	0.0	2.1	0.75
Cc1nc(CCNC(=O)C2CCC(=O)N(Cc3cccc(F)c3)C2)sc1C (stereo not drawn)	6.1	nt	-4.1	i	2.3	-3.9	0.69
CCN(CC(=O)Nc1c(F)cccc1F)C(=O)Cc1ccc2c(c1)OCCO2	6.3	-4%	-3.0	i	nt	0.3	0.67
CN(C(=O)Cc1ccccc1)n1cnnc1	1.4	-11%	3.1	nt	-1.9	nt	0.71
O=C1NC(NS(=O)(=O)c2ccc(Cl)cc2)(C(F)(F)F)C(=O)N1c1ccccc1 (stereo not drawn)	2.4	?	2.8	i	6.2	-2.8	0.73
CC1(C)Cc2c(cnn2-c2ccc(F)cc2)C(NC(=O)CCN2CCCC2=O)C1 (stereo not drawn)	3.9	nt	-2.1	i	-1.0	0.1	0.72
COCCNC(=O)Cn1cnc2c(cnn2-c2ccc(C)cc2)c1=O	nt	-12%	-4.6	i	0.1	-9.8	nt
Cc1cc(NC(=O)Cc2cccs2)no1	2.5	3.9µM*	-29	nt	nt	nt	0.7
CC(=O)Nc1ccc(NC(=O)c2c([N+](=O)[O-])c(C(C)(C)C)nn2C)cc1	1.3	-13%	1.5	i	5.2	2.1	0.67
O=C(COc1ccccc1)NC(NC(=S)Nc1ccccc1O)C(Cl)(Cl)Cl (stereo not drawn)	1.9	8%	3.0	nt	3.3	nt	0.7
Nc1nc(N)c2cc([N+](=O)[O-])ccc2n1	6.8	-1%	-4.2	i	nt	-2.1	0.6
C/C(=N\Nc1nc(N2CCCCC2)nc(N2CCOCC2)n1)c1cccs1	nt	-8%	-2.2	i	1.4	7.0	nt
CCCC(CCC)c1nc2ccncc2[nH]1	1.8	-7%	-2.1	i	-2.0	-0.9	0.67
CCCCN1C(=O)C(CC(=O)NCCc2ccccn2)CC(C(=O)N(CC)CC)=C1C (stereo not drawn)	nt	0%	-1.5	i	nt	-0.1	nt
CCOC(=O)c1ccc(NC(=O)c2ccc(NS(C)(=O)=O)cc2)cc1	-0.8	15%	0.6	nt	-3.9	nt	0.64
CC1NC(=O)NC1CCCCCC(=O)Nc1ccc(F)c(Cl)c1 (stereo not drawn)	2.0	-9%	-1.7	i	-2.2	93*	0.71
Cc1cc(C)cc(CC2CC(=O)N(c3cc(C)on3)C2=O)c1 (stereo not drawn)	2.6	?	-5.0	nt	-4.3	nt	0.73
COc1ccccc1N(CC(=O)Nc1c(C)n(C)n(-c2ccccc2)c1=O)S(=O)(=O)c1ccccc1	3.7	nt	-1.3	i	nt	-0.3	0.71
CCNC(=S)N1CCN(CCN=CC2=C(O)CC(c3ccco3)CC2=O)CC1 (stereo not drawn)	1.1	5%	0.5	nt	-1.7	nt	0.78
Fc1ccc2c(c1)C(c1ccc(N3CCOCC3)cc1)=NNC(c1cccs1)=N2	2.1	3%	15	nt	-0.9	nt	0.7

Next section:
SMILES	UCH37 inh	Vif A3G	HNF4A DNA FP	FGF22 binding	RanGTP-Imp inh	MLL AF4-AF9 inh	E coli growth
Cc1cc(NC(=O)CSc2nc(-c3ccccc3)cs2)no1	0.4	3%	-1.3	nt	-3.0	nt	0.72
CC(C(=O)Nc1ncccn1)(c1ccccc1)c1ccccc1	0.4	-6%	-4.1	nt	-2.2	-16	0.65
CC(C)(O)C#Cc1ccc(CN2CCCC(CO)(Cc3cccc(Cl)c3)C2)cc1 (stereo not drawn)	0.6	-4%	12	i	1.2	1.7	0.66
O=C1CCCN1CCCNc1nc2c(S(=O)(=O)c3ccc(Br)cc3)nnn2c2ccccc12	-314	-40%	-4.7	i	-1.9	-3.6	0.69
COc1ccc(C(=O)C(=O)N2CCC(Cc3ccccc3)CC2)cc1OC	nt	nt	-1.4	i	nt	-1.8	nt
COc1ccccc1C(=O)N/N=C/C(C)=C/c1ccccc1	nt	nt	7.0	i	-1.0	-3.8	nt
Oc1ccccc1-c1cc(C(F)(F)C(F)F)nc(-c2ccccc2)n1	-0.3	5%	0.1	nt	1.3	nt	0.69
CCCCOc1ccc(C(=O)NCC(=O)OCC(=O)N2CCN(S(=O)(=O)c3ccc(C)cc3C)CC2)cc1	3.4	16%	0.0	nt	-0.7	nt	0.73
N/C(CN1CCCC1=O)=N\OC(=O)c1ccc(Cl)cc1	6.7	-13%	-1.2	nt	-0.4	nt	0.68

Reformatted as a markdown table: 4 of the compounds above
| structure | UCH37 inh | Vif A3G | HNF4A DNA FP | FGF22 binding | RanGTP-Imp inh | MLL AF4-AF9 inh | E coli growth |
| --- | --- | --- | --- | --- | --- | --- | --- |
| O=C1CCCN1CCCNc1nc2c(S(=O)(=O)c3ccc(Br)cc3)nnn2c2ccccc12 | -314 | -40% | -4.7 | i | -1.9 | -3.6 | 0.69 |
| CC(C(=O)Nc1ncccn1)(c1ccccc1)c1ccccc1 | 0.4 | -6% | -4.1 | nt | -2.2 | -16 | 0.65 |
| COc1ccccc1C(=O)N/N=C/C(C)=C/c1ccccc1 | nt | nt | 7.0 | i | -1.0 | -3.8 | nt |
| COc1ccc(C(=O)C(=O)N2CCC(Cc3ccccc3)CC2)cc1OC | nt | nt | -1.4 | i | nt | -1.8 | nt |
